Bioassay records deposited in PubChem BioAssay by several laboratories.
Calb FLC: affects C. albicans growth with fluconazole. 0.57% of 300,000 active. growth inhibition, % (concentration not given with the values). C. albicans CaCi-2 (fluconazole-resistant clinical isolate) + fluconazole, Alamar Blue growth, 48 h;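 active = most replicates above 75%; inconclusive = exactly half above 75%; inactive = most below 75%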;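 also: all wells also contain fluconazole at 8 µg/ml as a sub-toxic cotreatment; 0% = median of DMSO wells and 100% = median of geldanamycin control wells; wells of about 8 µL received 7.5 nL stock; the first replicate is given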
Ecoli rRNA inh: selective bacterial rRNA inhibition in E. coli. GFP signal change (wild-type ribosome), % (test concentration not listed). AID 720706. 1.6% of 350,000 active. E. coli WT GFP vs humanized-ribosome RFP mutants, fluorescence, 24 h; hits give low values; DMSO median 0, no signal -100;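 active = significant combined selectivity score with lowered wild-type GFP, culture density cut under 30%, mutant RFP and density less affected; inactive = any of these conditions unmet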; also: one replicate is shown; some compounds called inactive have numbers as strong as hits
A1 inh: inhibitors of the anti-apoptotic protein A1, read as caspase activation; MEF A1-2A-BIM cells, Caspase-Glo 3/7 luminescence, 3 h; percent of clofoctol response, vehicle zero; 0.066% of 330,000 active; caspase activation, % (no concentration beside the values);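 active = over half of replicate activation scores above 10%, or exactly half above 10 with the replicate mean above 10; inconclusive = replicate mean below 10 yet half the replicates above 10; inactive = over half of replicates below 10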;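 also: wells of about 30 µL received 50 nL stock; many hits fall short of the cut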
Vif TR-FRET: HIV-1 Vif–A3G interaction blockers – biochemical, TR-FRET, GST-Vif 1-94, biotin-A3G peptide, dose response retest, primary screen (AID 1117319); TR-FRET GST-Vif / biotin-A3G peptide binding; higher % means a stronger effect; test concentration not given here; strong numbers were not always called active; inhibition, %; hits with a dose series show IC50 in µM; 0.57% of 260,000 active;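 active = above the screen mean plus three standard deviations and confirmed in dose response; inconclusive = results disagree or hit not tested in dose response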;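 also: Vif residues 1-94 fused to GST binding biotinylated APOBEC3G peptide 110-148; 0% = full assay without inhibitor and 100% = GST in place of GST-Vif; retest series ran down from 100 µM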
RanGTP-Impb inh: disruptors of Ran-importin-beta complex formation – biochemical, FRET, CFP-Ran, YFP-importin-beta, homogeneous, primary screen. AID 2216. 1.1% of 300,000 active. inhibition, % (concentration not given with the values). cell-free CFP-Ran/YFP-importin-beta FRET ratio;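 active = most replicates above 15%; inconclusive = exactly half above 15%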;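 also: 0% = DMSO wells and 100% = Ran loaded with GDP instead of GTP; wells of about 40 µL received 100 nL stock; the first replicate is given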
AF4-AF9 inh: MLL-AF4/AF9 protein interaction inhibition; P42568; AID 651704; inhibition, % at 10 µM; 0.47% of 350,000 active; AlphaScreen, biotin-AF4 peptide binding to FLAG-AF9;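 active = every replicate reaching a set inhibition limit, whatever the replicate mean, cut at about 25% in these data; inconclusive = mean inhibition reaches that limit but some replicates miss it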;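 also: 0% = plate neutral control median and 100% = total signal loss; the record names both 10 and 1 µM as test concentration; the first replicate is given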
Target sequence (P42568 whole entry, looked up): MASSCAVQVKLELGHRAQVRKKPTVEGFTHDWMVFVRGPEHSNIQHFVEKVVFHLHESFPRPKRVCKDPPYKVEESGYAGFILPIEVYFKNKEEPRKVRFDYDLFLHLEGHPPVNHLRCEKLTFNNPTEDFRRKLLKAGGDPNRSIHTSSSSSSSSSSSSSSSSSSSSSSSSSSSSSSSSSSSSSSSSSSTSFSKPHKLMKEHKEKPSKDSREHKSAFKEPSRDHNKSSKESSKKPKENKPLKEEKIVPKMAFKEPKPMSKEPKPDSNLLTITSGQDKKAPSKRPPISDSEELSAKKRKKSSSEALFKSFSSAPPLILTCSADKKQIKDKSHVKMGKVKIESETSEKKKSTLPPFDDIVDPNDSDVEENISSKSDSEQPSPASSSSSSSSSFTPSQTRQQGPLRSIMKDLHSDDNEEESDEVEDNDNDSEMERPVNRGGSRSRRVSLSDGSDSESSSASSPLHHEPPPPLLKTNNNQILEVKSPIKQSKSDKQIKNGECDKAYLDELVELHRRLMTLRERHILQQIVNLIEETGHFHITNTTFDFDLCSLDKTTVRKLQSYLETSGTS
T cruzi inh: T. cruzi replication inhibition. T. cruzi beta-gal in NIH3T3, luminescence, 90 h. inhibition, % (no concentration beside the values). 1.4% of 300,000 active. AID 1885;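 active = mean inhibition across valid replicates above about 55%, limit read from the data; inconclusive = mean below that limit but half or more replicates reach it; inactive = mean below it, under half of replicates reach it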;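 also: signal also drops with host cell toxicity which is not excluded here; 0% = plate median of DMSO wells and 100% = zero luminescence signal; higher percent means less beta-gal luminescence so fewer parasites; stock transfer was 50 nL into about 50 µL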
Beta apoptosis: beta cell apoptosis inhibition; 0.8% of 300,000 active; INS-1E cytokine-induced death, ATP luminescence, 48 h; percent of positive-control rescue, neutral wells zero; protection from apoptosis, % (test concentration not listed);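 active = all replicates at 75% or more, or half of them and the mean; inconclusive = half reach 75% but not the mean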;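 also: 0% = cytokine-treated negative control wells and 100% = positive control rescue; higher means more ATP so stronger rescue from cytokine killing; wells of about 40 µL received 100 nL stock; the first replicate is given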
Ecoli rRNA inh OD600: also measured in Ecoli rRNA inh; calls as there; OD600 change, %; measured here: OD600 growth;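 optical density of the mix in the first replicate; 0 = DMSO median and -100 = no signal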
Ecoli rRNA inh RFP: second read-out of Ecoli rRNA inh, no call of its own (marks repeat the call); RFP signal change, %; measured here: RFP humanized mutant strains;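 first replicate; 0 = DMSO median and -100 = no signal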
* = called active by the depositor; ? = inconclusive; nt = no result given.

SMILES	Calb FLC	Ecoli rRNA inh	Ecoli rRNA inh OD600	Ecoli rRNA inh RFP	A1 inh	Vif TR-FRET	RanGTP-Impb inh	AF4-AF9 inh	T cruzi inh	Beta apoptosis
COc1ccc(-c2nc(-c3ccccc3)no2)c(OC)c1	-11	-10	8	0.5	-6.8	24%	-1.4	-3.6	22	8
Cc1nc(/C(N)=N/OC(=O)c2c(-c3ccccc3Cl)noc2C)cs1	6	nt	nt	nt	-0.5	-2%	-0.8	3.7	2	-1
COc1ccc(-c2cc(C(F)(F)F)nc(SCCC(=O)NCc3ccco3)n2)cc1	6	nt	nt	nt	0.9	16%	3.0	nt	12	-1
O=C(O)C1C2C=CC3(CN(Cc4ccncc4)C(=O)C13)O2 (stereo not given)	46	nt	nt	nt	0.0	13%	-3.6	nt	-6	nt
Cc1onc(-c2c(F)cccc2Cl)c1C(=O)ONC(=O)c1ccccc1	-14	nt	nt	nt	0.8	-6%	3.2	-5.7	-8	-13
CCCCn1c(SCC(=O)N2CCC(C)CC2)nc2ccsc2c1=O	2	nt	nt	nt	1.4	-10%	?	nt	15	5
CS(=O)(=O)N1N=C(c2ccco2)CC1c1ccccc1 (stereo not given)	-17	4	5	-0.7	-0.2	nt	3.6	-0.6	-17	-7
CC(=O)Nc1ccc(S(=O)(=O)N2CCN(c3ncccn3)CC2)cc1	-9	-2	7	3.0	-0.1	nt	3.1	0.1	-10	nt
O=C(O)c1ccc(Cl)cc1NC(=O)C1CCCO1 (stereo not given)	5	nt	nt	nt	-0.3	2%	0.7	nt	-12	0
COc1cccc(OCCNc2cc(N3CCCCC3)ccc2[N+](=O)[O-])c1	3	nt	nt	nt	-0.4	-3%	-0.6	nt	21	4
COCCn1c(SCC(=O)Nc2ccccc2)nnc1-c1ccoc1C	30	0	5	-3.5	0.6	nt	-1.8	0.8	-8	-5
COc1ccc(S(=O)(=O)N(C)CC(=O)NC2CCCCC2)cc1OC	4	nt	nt	nt	-1.1	-3%	-3.7	nt	-4	nt
O=C(COc1ccc(Cl)cc1Cl)NCCC1=CCCCC1	-2	-53	-80	-27	0.8	0%	3.5	nt	20	-4
C/C(=N/NC(=O)CNC(=O)c1cccnc1)c1ccccc1	-3	12	12	-0.7	-0.1	-9%	?	-1.8	-5	-2
CCCCN1CC(C(=O)NC2CCCCC2)CC1=O (stereo not given)	6	nt	nt	nt	0.1	-5%	0.4	nt	-11	4
Cc1nn(C)c(Oc2cccc(Cl)c2)c1C(=O)O	-3	nt	nt	nt	0.6	11%	0.2	nt	-16	-5
COc1ccc(/C=C(\C#N)C(=O)N=CN(C)C)cc1	-1	-1	2	-2.1	-0.8	-3%	?	1.2	-7	-4
O=C(COc1ccc(Cl)cc1Cl)NN1C(=O)C2C3C=CC(C3)C2C1=O (stereo not given)	0	6	6	-1.7	0.4	-5%	-3.9	-1.6	13	-5
O=C(CC1SC(=Nc2cccc3ccccc23)N(Cc2ccccn2)C1=O)Nc1ccccc1Br (stereo not given)	-3	4	4	-2.6	-0.2	nt	-1.5	2.5	43	-8
O=S(=O)(NC(=S)NC1CCCCC1)c1ccc(Cl)cc1	4	-18	-20	-3.4	0.6	nt	2.0	-2.7	-11	2
COc1ccc(OC)c(NC(=O)CSc2nnc(Cn3nnc4ccccc43)n2C)c1	0	nt	nt	nt	0.8	2%	-0.8	nt	-1	3
COc1ccc(C2COC(=O)C2=N)c(NC(=O)c2ccccc2)c1 (stereo not given)	0	nt	nt	nt	-0.2	nt	0.5	nt	-22	-2
O=C(CSc1n[nH]c(-c2ccccc2)n1)Nc1ncccn1	4	nt	nt	nt	-0.9	4%	-1.7	nt	-23	-2
COc1cnc(-c2ccccn2)nc1Sc1cccc(Cl)c1	91*	nt	nt	nt	0.4	-5%	1.9	nt	33	40
CCc1nccn1S(=O)(=O)c1cccc([N+](=O)[O-])c1	2	nt	nt	nt	0.6	4%	1.7	nt	-8	1
Further structures follow:
SMILES	Calb FLC	Ecoli rRNA inh	Ecoli rRNA inh OD600	Ecoli rRNA inh RFP	A1 inh	Vif TR-FRET	RanGTP-Impb inh	AF4-AF9 inh	T cruzi inh	Beta apoptosis
CC(C)(C)C(=O)Nc1ccc(-c2cn3cccnc3n2)cc1	-7	5	10	2.1	-0.2	-1%	2.5	-1.1	-12	-1
Cc1occc1C(=O)Nc1cccc(C(=O)O)c1	?	nt	nt	nt	-9.2	17%	1.6	nt	-13	-2
O=C(CSc1nc2nn(-c3ccccc3)c(=O)c-2c2n1CCCCC2)Nc1cccc(F)c1	nt	-4	-3	-2.6	-0.5	nt	nt	10	nt	-1
COc1cccc(NC(=O)CN(C)C(C)C(=O)N2CCCC2)c1 (stereo not given)	nt	18	14	1.4	1.1	8%	nt	-1.6	nt	-5
COc1cccc(-c2cc(C(=O)N3CCCc4ccccc43)no2)c1	4	nt	nt	nt	-0.2	2%	-2.0	nt	19	4
CCOC(=O)c1nnn(CC(=O)NC(=O)Nc2ccc(F)cc2)c1C(=O)OCC	7	4	6	0.5	0.1	-4%	1.4	0.2	-8	-1
Cc1ccc(C)c(N2CCN(C(=O)c3ccc4c(=O)n5c(nc4c3)CCCCC5)CC2)c1	14	-19	-38	-3.0	nt	2%	4.3	9.7	20	nt
O=C(Nc1ccccc1F)Nc1cc(S(=O)(=O)N2CCOCC2)ccc1N1CCCC1	7	-19*	2.6*	4.9*	-0.4	0%	2.5	2.9	6	-4
CN(C)CCNC(=O)/C(=C/c1ccc(-c2ccc(Cl)cc2Cl)o1)NC(=O)c1ccccc1	?	nt	nt	nt	0.3	25%	-1.9	nt	32	99*
Cc1cc(NC(=O)c2ccc(C)c(C)c2)no1	7	13	13	2.5	-2.4	-3%	-0.4	1.7	-5	nt
Cc1cc(C#N)c(C)n1-c1cc(S(=O)(=O)N2CCOCC2)ccc1N1CCCC1	nt	nt	nt	nt	-1.4	26%	-0.6	nt	2	-6
CCCc1ccc(-c2c(C)sc(N)c2C#N)cc1	2	nt	nt	nt	1.7	10%	4.2	nt	13	-10
O=C(NCCCN1CCOCC1)c1ccc(Sc2cccc(Cl)c2)c([N+](=O)[O-])c1	-27	nt	nt	nt	-0.1	nt	1.3	nt	25	nt
CCc1cc(C(=O)c2ccc(Br)cc2)c(NC(=O)CN(CC)CC)s1	15	-4	0	-2.4	1.4	nt	-2.2	6.6	24	8
COC(=O)NCCOc1nc(N(C)C)nc(N(C)C)n1	-5	nt	nt	nt	1.3	-9%	3.2	nt	1	nt
O=C(O)c1ccc2c(=O)n(-c3ccc(F)c(Cl)c3)c(=S)[nH]c2c1	1	-3	15	6.6	-0.9	nt	8.2	-6.5	2	2
OCCC1CN(Cc2cccn2-c2ncccn2)CCN1Cc1ccc(F)cc1 (stereo not given)	-11	13	8	0.8	1.1	24%	2.3	-0.3	8	-8
COCCNc1nnnc2c1sc1nc(N3CCOCC3)c3c(c12)CC(C)(C)OC3	9	8	14	1.2	0.2	2%	0.8	-1.9	-7	-4
Cc1cc(/C=N/NC(=O)c2cccs2)c(C)n1-c1ccccc1	8	nt	nt	nt	-3.5	6%	5.7	nt	11	-3
CC1(C)Oc2ccc3ccc(=O)oc3c2/C(=C/O)C1=O	0	10	10	3.7	0.6	nt	1.5	0.9	-4	-2
COc1ccccc1C(=O)Nc1ccnn1C1CCN(C2CCSCC2)CC1	-4	8	8	0.1	0.0	0%	9.4	-0.9	23	-3
COc1ccc([C@@]2(C(C)C)ON(c3ccccc3C(F)(F)F)C2=O)cc1	nt	8	8	-4.3	2.1	nt	nt	0.0	nt	7
CN(C(=O)COC(=O)c1ccc(=O)n(Cc2ccccc2)n1)C1CCCCC1	nt	8	12	-1.8	0.2	-4%	nt	0.6	nt	0
CC(=O)Nc1ccc(S(=O)(=O)NCC(=O)OCC(=O)NC23CC4CC(CC(C4)C2)C3)cc1	-23	nt	nt	nt	-0.2	0%	2.8	nt	-3	-16
COc1cccc(CCc2nnc(CCC(=O)NC(C)c3c(C)nn(C)c3C)o2)c1 (stereo not given)	-3	16	9	-2.5	0.4	-4%	2.5	-3.6	-4	-7
Next section:
SMILES	Calb FLC	Ecoli rRNA inh	Ecoli rRNA inh OD600	Ecoli rRNA inh RFP	A1 inh	Vif TR-FRET	RanGTP-Impb inh	AF4-AF9 inh	T cruzi inh	Beta apoptosis
CCn1cc(C(=O)N2CCN(C3CCCCC3)CC2)c2cc(OC)c(OC)cc2c1=O	-3	nt	nt	nt	0.4	-1%	-0.3	nt	-16	-5
CC12c3ccccc3C(c3ccccc31)C1C(=O)N(c3ccncc3)C(=O)C12 (stereo not given)	37	-14	-10	1.9	1.8	5%	-2.7	3.3	5	5
COC(=O)c1[nH]c2cc(OC)ccc2c1NC(=O)CCN1CCSCC1	-7	nt	nt	nt	1.0	-12%	5.2	nt	-4	-9
Cc1nsc(Nc2ccc([N+](=O)[O-])cc2)c1C#N	32	7	1	1.6	-0.6	nt	3.2	0.4	-16	39
Cc1c(C(=O)N2CCN(C(c3ccccc3)c3ccccc3)CC2)oc2ccccc12	nt	6	11	-2.5	0.2	4%	nt	-2.5	nt	0
O=C(COC(=O)c1cncc(Br)c1)Nc1nnc(-c2ccccc2)o1	-7	-6	-33	-1.9	-0.8	8%	2.5	-2.4	-15	-2
CN(c1ncc(C(F)(F)F)cc1Cl)N1C(=O)C2ONC3(C(=O)CC(C)(C)CC3=O)C2C1=O (stereo not given)	-14	1	-3	-0.2	0.5	0%	-4.4	-23	5	-28
CCn1c(COc2ccccc2)nnc1SCC(=O)CC(=O)Nc1ccccc1OC	6	4	14	6.9	-0.3	32%	2.5	nt	-2	2
COc1ccccc1CNC(=O)C1CC(c2cccc([N+](=O)[O-])c2)=NO1 (stereo not given)	17	-40	-69	-17	0.5	-5%	0.6	2.0	6	-6
CCO[C@H]1OC(C(=O)N2CCN(Cc3ccc4c(c3)OCO4)CC2)=C[C@@H](C)[C@@H]1CCCO	3	2	4	12	1.1	3%	-3.7	-1.4	3	-3
Cc1ccc(N(C(=O)c2snc(C(N)=O)c2N)C(C(=O)NCC2CCCO2)c2c[nH]c3ccccc23)cc1 (stereo not given)	5	3	-7	3.2	-0.7	nt	-3.3	3.2	9	4
Cc1ccc(SCC(=O)NC2CCCCCC2)cc1	-31	-30	-32	-3.5	-2.0	-9%	3.2	-5.7	1	nt
Cn1c(SCCCC(=O)c2ccc(F)cc2)nnc1-c1ccncc1	-4	nt	nt	nt	2.3	-4%	-0.3	nt	-5	7

Taken from above:
Ecoli rRNA inh OD600 result of Cc1nsc(Nc2ccc([N+](=O)[O-])cc2)c1C#N = 1
RanGTP-Impb inh result of CCn1cc(C(=O)N2CCN(C3CCCCC3)CC2)c2cc(OC)c(OC)cc2c1=O = -0.3

A portion of the library (hit frequency here may not be typical).
